A1 inh: inhibitors of the anti-apoptotic protein A1, read as caspase activation; MEF A1-2A-BIM cells, Caspase-Glo 3/7 luminescence, 3 h; percent of clofoctol response, vehicle zero; caspase activation, % (test concentration not listed); 330,000 compounds, 0.066% hits; AID 2462;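 active means over half of replicate activation scores above 10%, or exactly half above 10 with the replicate mean above 10; inconclusive means replicate mean below 10 yet half the replicates above 10; inactive means over half of replicates below 10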;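 further: wells of about 30 µL received 50 nL stock; many hits fall short of the cut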
B2AR ag: activates human beta-2 adrenergic receptor causing internalization. AID 504454. Am2.2-beta2AR cells, FAP receptor internalization, flow cytometry; reference of the scale not given here. 340,000 compounds, 0.43% hits. response, % (concentration not given with the values);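 active means response above a set limit, near 3 SD of response in nonfluorescent compounds, cut at about 42% in these data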;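 further: stock transfer was 100 nL into about 11 µL; a reference agonist was the positive control; negative values mostly stem from fluorescent compounds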
ALR H2O2 inh: human ALR oxidase inhibition via reduced H2O2; purified ALR, DTT oxidation, H2O2 HRP-luminol luminescence; 290,000 compounds, 3.8% hits; inhibition, % (test concentration not listed);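 active means mean and each replicate at 75% or more; inconclusive means only one of the two met; inactive means neither met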;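 further: stock transfer was 7.5 nL into about 7.5 µL; 0% = neutral wells and 100% = wells with inactivated enzyme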
Calb FLC: C. albicans growth modulation with fluconazole. C. albicans CaCi-2 (fluconazole-resistant clinical isolate) + fluconazole, Alamar Blue growth, 48 h. growth inhibition, % (concentration not given with the values). 300,000 compounds, 0.57% hits. AID 1979;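 active means most replicates above 75%; inconclusive means exactly half above 75%; inactive means most below 75%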;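 further: all wells also contain fluconazole at 8 µg/ml as a sub-toxic cotreatment; 0% = median of DMSO wells and 100% = median of geldanamycin control wells; wells of about 8 µL received 7.5 nL stock; the first replicate is given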
LANA-H2B inh: blocks KSHV LANA binding to histone H2A/H2B. Q9QR71. cell-free LANA-H2A/H2B peptide, fluorescence polarization. inhibition, % (no concentration beside the values). 320,000 compounds, 0.6% hits; in the data active means inhibition mostly above about 10%, no sharp cut-off; inactive means mostly below about 6.7%;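 further: stock transfer was 7.5 nL into about 10 µL; 0% = median of vehicle wells and 100% = median of positive control wells; one replicate is shown; the record names a cut of 25% in any replicate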
Target sequence (Q9QR71 whole entry, looked up): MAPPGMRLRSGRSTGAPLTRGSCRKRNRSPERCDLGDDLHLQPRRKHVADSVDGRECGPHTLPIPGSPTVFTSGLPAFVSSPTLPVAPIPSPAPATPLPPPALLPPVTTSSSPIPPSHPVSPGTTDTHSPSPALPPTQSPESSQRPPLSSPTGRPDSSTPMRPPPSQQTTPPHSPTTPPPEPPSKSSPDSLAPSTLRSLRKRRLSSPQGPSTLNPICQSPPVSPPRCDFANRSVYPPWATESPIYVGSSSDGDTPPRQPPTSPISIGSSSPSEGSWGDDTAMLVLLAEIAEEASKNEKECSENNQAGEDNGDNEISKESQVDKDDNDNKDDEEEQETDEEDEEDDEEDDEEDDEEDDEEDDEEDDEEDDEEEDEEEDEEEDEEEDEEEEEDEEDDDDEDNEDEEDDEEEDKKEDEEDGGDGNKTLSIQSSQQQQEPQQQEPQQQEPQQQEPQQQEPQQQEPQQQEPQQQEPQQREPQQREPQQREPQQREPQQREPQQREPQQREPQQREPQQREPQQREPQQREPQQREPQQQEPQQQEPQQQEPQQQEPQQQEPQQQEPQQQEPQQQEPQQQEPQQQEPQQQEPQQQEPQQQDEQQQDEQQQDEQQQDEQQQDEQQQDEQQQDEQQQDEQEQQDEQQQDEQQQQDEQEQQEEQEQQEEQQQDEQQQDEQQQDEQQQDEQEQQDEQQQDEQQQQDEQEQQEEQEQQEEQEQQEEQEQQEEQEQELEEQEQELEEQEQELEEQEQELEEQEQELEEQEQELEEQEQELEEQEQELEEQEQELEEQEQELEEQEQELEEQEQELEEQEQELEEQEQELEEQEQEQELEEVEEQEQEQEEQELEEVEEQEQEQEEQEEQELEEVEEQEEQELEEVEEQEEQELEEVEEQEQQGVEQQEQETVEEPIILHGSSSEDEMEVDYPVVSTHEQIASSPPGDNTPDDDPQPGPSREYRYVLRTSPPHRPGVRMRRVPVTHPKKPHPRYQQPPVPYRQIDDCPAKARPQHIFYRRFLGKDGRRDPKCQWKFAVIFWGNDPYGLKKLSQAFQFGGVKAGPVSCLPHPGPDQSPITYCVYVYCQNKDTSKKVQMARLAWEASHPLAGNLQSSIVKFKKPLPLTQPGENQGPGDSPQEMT
Beta cell apopt: beta cell apoptosis inhibition; INS-1E cytokine-induced death, ATP luminescence, 48 h; percent of positive-control rescue, neutral wells zero; protection from apoptosis, % (no concentration beside the values); 300,000 compounds, 0.8% hits; AID 435005;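 active means all replicates at 75% or more, or half of them and the mean; inconclusive means half reach 75% but not the mean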;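 further: 0% = cytokine-treated negative control wells and 100% = positive control rescue; higher means more ATP so stronger rescue from cytokine killing; wells of about 40 µL received 100 nL stock; the first replicate is given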
T cruzi repl: T. cruzi replication inhibition; T. cruzi beta-gal in NIH3T3, luminescence, 90 h; inhibition, % (concentration not given with the values); 300,000 compounds, 1.4% hits;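 active means mean inhibition across valid replicates above about 55%, limit read from the data; inconclusive means mean below that limit but half or more replicates reach it; inactive means mean below it, under half of replicates reach it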;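 further: signal also drops with host cell toxicity which is not excluded here; 0% = plate median of DMSO wells and 100% = zero luminescence signal; higher percent means less beta-gal luminescence so fewer parasites; stock transfer was 50 nL into about 50 µL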
rRNA inh HTS: inhibitors of bacterial rRNA selective over humanized ribosomes; E. coli WT GFP vs humanized-ribosome RFP mutants, fluorescence, 24 h; hits give low values; DMSO median 0, no signal -100; GFP signal change (wild-type ribosome), % (test concentration not listed); 350,000 compounds, 1.6% hits; AID 720706;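 active means significant combined selectivity score with lowered wild-type GFP, culture density cut under 30%, mutant RFP and density less affected; inactive means any of these conditions unmet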; further: one replicate is shown; some compounds called inactive have numbers as strong as hits
rRNA inh HTS OD600: second read-out of rRNA inh HTS, no call of its own (marks repeat the call); OD600 change, %; measured here: OD600 growth;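 optical density of the mix in the first replicate; 0 = DMSO median and -100 = no signal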
rRNA inh HTS RFP: second read-out of rRNA inh HTS, no call of its own (marks repeat the call); RFP signal change, %; measured here: RFP humanized mutant strains;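 first replicate; 0 = DMSO median and -100 = no signal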
* marks the source's active call; other numbers are inactive results; ? = inconclusive; · = no result given. Only part of the results is shown (hit frequency here may not be typical).

SMILES | A1 inh | B2AR ag | ALR H2O2 inh | Calb FLC | LANA-H2B inh | Beta cell apopt | T cruzi repl | rRNA inh HTS | rRNA inh HTS OD600 | rRNA inh HTS RFP
CC(C)C(NC(=O)C1CCCCC1)C(=O)Nc1ccccn1 (centres undefined) | 0.5 | 1 | -5 | 26 | -1.3 | -2 | -18 | · | · | ·
CCCCOC(=O)NC1CCS(=O)(=O)C1 (centres undefined) | 0.1 | -5 | -12 | -16 | 0.4 | -3 | -14 | · | · | ·
COc1ccc(C(C(=O)NC2CCCCC2)N(Cc2ccco2)C(=O)c2ccccn2)c(OC)c1 (centres undefined) | 0.9 | -12 | -17 | 12 | -2.3 | -7 | 0 | 4 | 1 | 4.4
Cc1onc(-c2ccccc2)c1C(=O)N1CCN(CCc2ccccc2)CC1 | 0.6 | 2 | -4 | -25 | -0.9 | -4 | 0 | · | · | ·
C#CCn1c(S(=O)(=O)Cc2ccccc2Cl)nc(-c2ccccc2)c1-c1ccccc1 | 0.2 | 8 | -30 | 50 | 7.1 | -5 | 4 | · | · | ·
Cc1cccc(NC(=S)NCc2ccco2)n1 | 0.1 | -10 | -9 | 0 | -1.2 | -6 | 5 | 2 | 4 | -3.0
COc1ccc(C(=O)NC(C)c2nccs2)cc1OC1CCN(C(C)C)CC1 (centres undefined) | -0.5 | 4 | 12 | -1 | 4.3 | 1 | 2 | 7 | 10 | -2.5
CN(CCC#N)C(=O)COC(=O)[C@H](Cc1ccccc1)N1C(=O)c2ccccc2C1=O | -0.5 | 0 | -88 | · | 2.3 | 1 | -7 | 14 | 8 | 4.4
Cc1cc(C)c(S(=O)(=O)NCC(CCC(=O)O)C(F)(F)F)c(C)c1 (centres undefined) | -0.2 | -1 | -7 | -9 | -1.0 | -3 | -7 | -3 | 1 | -1.6
Cc1ccc(NC(=O)c2ccc(C)c(NC3=NC4CS(=O)(=O)CC4S3)c2)cc1C (centres undefined) | · | 5 | 34 | 8 | -3.5 | -6 | -3 | 2 | 7 | 0.5
C=CCOc1ccc(/C(O)=C2/C(=O)C(=O)N(CCCn3ccnc3)C2c2cccs2)cc1 (centres undefined) | 0.3 | 1 | 18 | -6 | -0.1 | -6 | -9 | · | · | ·
Nc1ccc(S(=O)(=O)NCC(=O)OCCOc2ccccc2)cc1[N+](=O)[O-] | 0.3 | -5 | -2 | -1 | -2.1 | -4 | -10 | -2 | -3 | 3.2
CC(C(=O)OCC(=O)Nc1ncc(Cl)cc1Cl)N1C(=O)c2ccccc2C1=O (centres undefined) | 0.6 | 0 | 0 | · | -1.7 | -7 | · | · | · | ·
CC1CCN(S(=O)(=O)c2ccc(C(=O)N(C)C3CCS(=O)(=O)C3)cc2)CC1 (centres undefined) | -1.5 | -8 | 4 | -7 | -1.8 | · | 4 | 5 | 8 | -2.5
Cc1[nH]c2ccccc2c1/C=N/NC(=O)c1cccc([N+](=O)[O-])c1 | 0.2 | 0 | 3 | 13 | 3.7 | -6 | -4 | 0 | 0 | -0.1
COc1ccc(N2CCN(CC(=O)NCc3ccccc3)CC2)cc1 | 0.7 | 2 | 70 | 4 | 8.1 | -1 | -6 | -4 | -2 | 4.5
COc1cc2c(cc1OC)C1(Nc3c-2c(-c2ccccc2)nn3-c2ccccc2)C(=O)Nc2ccccc21 (centres undefined) | -0.2 | 2 | 4 | 19 | 3.0 | 2 | 1 | · | · | ·
CC(C)(C)OC(=O)C[C@@H]1C/C=C\C[C@H](CC(=O)N(CCO)Cc2ccccc2)C(=O)N[C@@H](c2ccccc2)COC1=O | 1.8 | -6 | -2 | · | 2.9 | -4 | · | 3 | 4 | 3.5
CCOC(=O)C1CCCN(c2nnnn2-c2ccccc2)C1 (centres undefined) | -0.3 | -9 | -1 | 5 | 0.8 | -7 | 2 | 1 | 1 | -4.6
CCN(CC(=O)Nc1ccc(OC)cc1)C(=O)c1ccc(N2C(=O)CCC2=O)cc1 | 0.1 | 2 | 0 | · | -11 | 6 | · | 11 | 9 | -1.8
CC(=O)c1ccc(C(=O)N2CCC(n3nccc3NC(=O)C3CC3)CC2)cc1 | -0.6 | -7 | -3 | 2 | 2.1 | -3 | -10 | 12 | 9 | -0.6
CCn1c(SCC(=O)N/N=C/C=C/c2ccco2)nc2ccccc21 | 0.5 | 0 | -5 | -4 | 1.8 | -3 | -17 | · | · | ·
COc1ccc(F)c(CN2CCC(N3CCC(C(=O)N4CCOCC4)CC3)CC2)c1 | 0.2 | 6 | · | 4 | · | 1 | 11 | 6 | 10 | 3.6
Cc1ccc(-c2c(C(=O)N/N=C/c3ccsc3)nnn2-c2nonc2N)cc1 | 0.5 | -11 | -8 | 10 | -0.6 | 4 | -18 | 11 | 14 | 0.9
CC(C)(C)C(=O)N1N=C(c2cccc(NS(C)(=O)=O)c2)CC1c1cccs1 (centres undefined) | -0.2 | 0 | -7 | 25 | 1.9 | -9 | 2 | -20 | -44 | -5.5
CCN(CC)S(=O)(=O)c1cccc(NC(=O)/C=C/c2cccc([N+](=O)[O-])c2)c1 | 0.1 | 13 | -2 | ? | -2.3 | 4 | 8 | -5 | -3 | 2.4
Cc1ccnc(NS(=O)(=O)c2ccc(NC(=O)c3ccccc3F)cc2)n1 | 2.1 | 3 | 1 | -3 | 2.1 | -4 | 3 | 6 | 14 | 1.4
O=C(NNS(=O)(=O)c1ccc(F)cc1)C1CCCCC1 | -0.2 | 11 | 21 | -6 | 2.0 | -2 | -14 | 1 | 3 | -2.0
Cc1ccccc1NC(=S)NCC1CCC(CNC(=S)Nc2ccccc2C)CC1 (centres undefined) | 0.4 | 10 | -8 | -20 | 0.0 | 8 | 11 | 0 | 29 | -4.2
CC1CCN(C(=O)CN2C(=O)C(=O)N(C(C)C)C2=O)c2ccccc2S1 (centres undefined) | 0.4 | 3 | -1 | · | -5.7 | -1 | · | 8 | -1 | 2.4
CN(C)c1ccc(NC(=O)c2cccc(N3C(=O)C4C5C=CC(C5)C4C3=O)c2)cc1 (centres undefined) | -0.7 | 0 | 99* | 26 | -1.8 | 1 | 3 | · | · | ·
O=C(CCS(=O)(=O)c1cccc2nsnc12)N1CCN(Cc2ccc3c(c2)OCO3)CC1 | 0.5 | 5 | -11 | -13 | -1.2 | -7 | -3 | · | · | ·
COc1cccc(N2CCN(Cc3nc(N)nc(N4CCCc5ccccc54)n3)CC2)c1 | -0.1 | 16 | 65 | 3 | 3.1 | -4 | 1 | · | · | ·
CC(C)c1cc(CNC(=O)c2ccc(OC3CCN(Cc4ccccn4)CC3)cc2)on1 | 0.7 | -20 | -7 | -2 | 2.8 | 0 | 46 | 11 | 4 | 1.4
COc1ccccc1/C=C1/SC(=S)N(CCC(=O)Nc2cccnc2)C1=O | 0.2 | 14 | -2 | 3 | 7.2 | -5 | -4 | 27 | 5 | 9.1
CS(=O)(=O)N1CCC(C(=O)NCc2ccccc2)CC1 | 1.0 | -2 | -3 | -31 | -1.2 | 0 | 5 | 12 | 2 | -7.4
COc1cc(NC(=O)C2CC(c3ccccc3Cl)=NO2)cc(OC)c1OC (centres undefined) | -0.2 | 2 | -1 | 9 | 0.0 | 9 | -8 | -5 | -9 | -0.5
CCC(C)[C@H](NC(=O)N1CCn2c1nc1ccccc12)C(=O)NCc1ccc(OC)cc1 (some centres undefined) | -0.2 | -24 | -19 | -4 | -0.5 | -4 | 12 | -7 | -7 | -0.7
C[C@H](NC(=O)[C@H](Cc1ccccc1)n1c(=O)[nH]c2ccccc2c1=O)C(=O)N1CCC(C(=O)O)CC1 | 1.8 | 4 | -7 | -1 | 3.9 | 1 | -5 | 7 | 8 | -11
CS(=O)(=O)CCC(C(=O)Nc1ccc2c(c1)OCO2)N1Cc2ccccc2C1=O (centres undefined) | 0.3 | 0 | -29 | -1 | 1.9 | -2 | -2 | 1 | 8 | 0.7
O=C(CCS(=O)(=O)c1ccc(Cl)cc1)NCCN1C(=O)S/C(=C\c2ccccc2F)C1=O | 0.2 | 3 | 5 | -1 | 5.8 | -13 | -10 | -1 | 1 | 1.0
CCn1c(SCCN2CCOCC2)nc2c1c(=O)n(C)c(=O)n2C | 0.7 | 11 | -9 | -1 | -0.5 | · | 7 | 3 | 4 | 0.4
Cc1cc(=O)[nH]c(Nc2cccc(Br)c2)n1 | 0.1 | -1 | -7 | -6 | 0.8 | -4 | -1 | -11 | -9 | -3.1
CCOc1ccc(N(CC(=O)N2CCN(c3ccccc3OC)CC2)S(=O)(=O)c2ccc(C)cc2)cc1 | · | 5 | · | -1 | · | · | 17 | 0 | 0 | 0.2
CC1(C)CC(=O)C2=C(C1)OC(N)=C(C#N)C2c1ccc[nH]1 (centres undefined) | -0.5 | 0 | -5 | 2 | 5.7 | -2 | -16 | 20 | 16 | 23

Record cards (already shown). Values in the order: A1 inh | B2AR ag | ALR H2O2 inh | Calb FLC | LANA-H2B inh | Beta cell apopt | T cruzi repl | rRNA inh HTS | rRNA inh HTS OD600 | rRNA inh HTS RFP
`CCn1c(SCC(=O)N/N=C/C=C/c2ccco2)nc2ccccc21` as listed: 0.5 | 0 | -5 | -4 | 1.8 | -3 | -17 | · | · | ·
`CC1(C)CC(=O)C2=C(C1)OC(N)=C(C#N)C2c1ccc[nH]1` (centres undefined) as listed: -0.5 | 0 | -5 | 2 | 5.7 | -2 | -16 | 20 | 16 | 23

Other structures follow.
SMILES | A1 inh | B2AR ag | ALR H2O2 inh | Calb FLC | LANA-H2B inh | Beta cell apopt | T cruzi repl | rRNA inh HTS | rRNA inh HTS OD600 | rRNA inh HTS RFP
NS(=O)(=O)c1ccc(-c2ccc(/C=C3\NC(=S)NC3=O)o2)cc1 | 1.1 | -9 | -34 | -2 | 3.2 | -8 | -12 | 6 | 6 | 4.7
CCC(CC)C(=O)Nc1cccc(C(=O)c2ccccc2)c1 | 1.0 | -2 | -4 | -34 | -1.4 | 0 | -5 | · | · | ·
COc1cc(C(=O)N/C(=C\c2cn(C)c3ccccc23)C(=O)N2CCOCC2)cc(OC)c1OC | 0.4 | 6 | 35 | 40 | 0.9 | 2 | 4 | -1 | 0 | 0.0
O=C(COC(=O)c1ccc(Cl)nc1)Nc1ccc2c(c1)CCC2 | 0.9 | 1 | · | · | -2.8 | 3 | · | 9 | 8 | 4.1
O=C1CCc2cc(S(=O)(=O)Nc3ccccc3Cl)ccc2N1 | 1.4 | 2 | -30 | · | 4.6 | -1 | · | -1 | -3 | -2.3
Cc1nc2sc3c(c2c(=O)n1/N=C/c1cccnc1)CCCC3 | 0.9 | -2 | 14 | 1 | 2.0 | 3 | 4 | -19 | -11 | 3.7
Cc1ccccc1NC(=O)CNc1ccccc1C(=O)NCc1ccco1 | 0.0 | 3 | 0 | -16 | 0.6 | -16 | 21 | · | · | ·
COc1cccc(NC(=O)Cn2c(=O)c3c(ncn3Cc3ccccc3)n(Cc3ccccc3)c2=O)c1 | 1.2 | -9 | · | 0 | 1.1 | 5 | 46 | · | · | ·
C/C(=N\NC(=O)Cc1ccc(Cl)c(Cl)c1)c1cccnc1 | -0.5 | -11 | -11 | -30 | -2.4 | 3 | 5 | -8 | -16 | -4.1

Compound activity deposited in PubChem BioAssay by several laboratories.
